# eIF4H inh: inhibitors of RNA binding by human eIF4H; AID 2012; hit rate 0.94% among 290,000; Q15056; inhibition, % at 35 µM; eIF4H fluorescence polarization binding assay;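 active means 50% or more with normal probe brightness, or confirmed in later tests; about a fifth of its hits are not listed in these tables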;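 further: calls also rest on retests at 20 µM and on dose response follow-up; 0% = protein and probe with vehicle and 100% = probe without protein; strong numbers were not always called active; many hits fall short of the cut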
# Rce1 inhib: blocks yeast Ras-converting enzyme | Q03530 | yeast membranes, quenched prenylated peptide cleavage fluorescence | calls only | hit rate 0.27% among 290,000 | AID 2563;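 active means fall in fluorescence gain of 50% or more versus controls, with final raw signal at or below 3038400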;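 further: plate controls were neutral control wells for no effect and wells lacking membranes for full effect; tested at 10 µM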
# Yeast UUG start: modulators of start codon recognition fidelity in yeast. activity score, % at 18.7 µM. S. cerevisiae UUG-firefly luciferase reporter, luminescence/redox ratio. hit rate 0.13% among 350,000;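 active means replicate mean at a twofold rise or more, about +100% in these data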;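 further: firefly luciferase made from a UUG start codon reports start codon fidelity; reporter light over untreated wells divided by growth signal over untreated wells; some hits fall short of that in this replicate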
# PABP polyA inh: blocks human PABP binding to poly(A) RNA | inhibition, % at 35 µM | fluorescence polarization | P11940 | AID 2014 | hit rate 1% among 290,000;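 active means 50% or more with normal probe brightness, or confirmed in later tests; about a fifth of its hits are not listed in these tables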;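 further: calls also rest on retests at 20 µM and on dose response follow-up; controls were probe without protein and protein plus probe with vehicle; some compounds called inactive have numbers as strong as hits; many hits fall short of the cut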
# Target sequence (P11940 whole entry, looked up): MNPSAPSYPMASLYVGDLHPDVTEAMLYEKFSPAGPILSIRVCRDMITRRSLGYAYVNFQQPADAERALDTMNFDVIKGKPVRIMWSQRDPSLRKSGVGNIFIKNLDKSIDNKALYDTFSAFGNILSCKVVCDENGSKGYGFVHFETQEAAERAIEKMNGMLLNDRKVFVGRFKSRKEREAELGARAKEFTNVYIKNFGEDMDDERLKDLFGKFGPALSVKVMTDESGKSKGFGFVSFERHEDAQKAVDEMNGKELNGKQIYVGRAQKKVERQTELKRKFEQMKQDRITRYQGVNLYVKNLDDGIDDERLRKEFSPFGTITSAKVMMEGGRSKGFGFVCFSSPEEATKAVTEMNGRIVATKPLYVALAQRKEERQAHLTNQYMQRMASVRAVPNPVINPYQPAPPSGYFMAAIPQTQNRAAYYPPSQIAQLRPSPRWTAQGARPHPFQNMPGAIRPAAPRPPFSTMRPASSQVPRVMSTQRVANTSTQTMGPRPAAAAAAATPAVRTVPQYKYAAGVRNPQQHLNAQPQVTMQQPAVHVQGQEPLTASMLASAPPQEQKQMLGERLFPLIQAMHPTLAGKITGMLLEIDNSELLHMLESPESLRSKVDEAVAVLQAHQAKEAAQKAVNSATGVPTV
# MT1-MMP act inh: inhibitors of human MT1-MMP activation; hit rate 0.061% among 360,000; GFP/RFP ratio change, % at 20 µM; HT1080 RFP-PRO-GFP cells, GFP/RFP ratio fluorescence, overnight; percent of plate control window, DMSO zero; P50281;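 active means GFP/RFP ratio change of at least 30% with cell ATP level not reduced by more than half and red fluorescence within 50% of control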; further: strong numbers were not always called active
#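 Assay system: HT1080 cells carrying an RFP-PRO-GFP reporter | Dosing: Single dose of 20 µM compound, 1% DMSO final | Incubation: Cells overnight before dosing, compound overnight, 37 °C, 5% CO2 | Evaluation: GFP/RFP fluorescence ratio | Control set: DMSO and RFP-L50D-GFP cell wells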
# CSC inhib: blocks cancer stem cells; cancer stem cell-like cells viability, luminescence; inhibition, % at 7.5 µM; hit rate 1.1% among 300,000;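 active means mean at 75% or more and at least half the replicates too; tested in HMLE shEcad cells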;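 further: 0% = median of negative and 100% = median of positive control wells; the first replicate is given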
# HIV Env fusion: blocks HIV Env-driven cell-cell fusion | HeLa-JRFL Env/CEM21 cell fusion, luciferase | inhibition, % at 12.3 µM | hit rate 1.1% among 360,000;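 active means mean replicate inhibition score of at least 50 and every replicate individually at or above 50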;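 further: 0% = plate neutral controls and 100% = maraviroc near 300 nM; one replicate is shown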
# eIF4H inh retest: also measured in eIF4H inh; calls as there; inhibition, %; compound at 20 µM; confirmation average;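 mean of two retest wells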
# PABP polyA inh retest: also measured in PABP polyA inh; calls as there; inhibition, %; compound at 20 µM; confirmation repeats;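 mean of two retest wells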
# MT1-MMP act inh RFP: recorded beside MT1-MMP act inh, whose call it bears; RFP signal change, %; measured here: RFP expression control read;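 0 = vehicle wells; hits needed this value within 50% of zero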
# The depositor's hits bear a star; i = inactive; x = no result given; & = joins results of further samples; [ ] = dose if it differs, or a comment.
SMILES,eIF4H inh,Rce1 inhib,Yeast UUG start,PABP polyA inh,MT1-MMP act inh,MT1-MMP act inh RFP,CSC inhib,HIV Env fusion,others
CCc1cc(C(=O)N2CCCC(CO)(Cc3ccc(F)cc3)C2)n(C)n1 (configuration not stated),2,i,-11,-9,-1,-2,2,5,
Cc1cccc(C(=O)Nc2c(C(=O)N3CCN(C)CC3)cnn2-c2ccccc2)c1,-6,i,9,29,0,0,-8,0,
Cc1ccc2nc(NC(=O)C3CCCN(S(=O)(=O)c4cccnc4)C3)sc2c1 (configuration not stated),-3,i,-8,3,1,-9,-4,10,
COc1cc([N+](=O)[O-])cc(/C=N/NC(=O)C(C)Nc2cccc3ccccc23)c1O (configuration not stated),35,i,-22,-1,4,0,23,5,
Cc1cc(C(=O)CSc2nnc(Nc3ccccc3)s2)c(C)n1CC1CCCO1 (configuration not stated),-6,i,-6,2,-6,-9,17,x,
COc1ccc(N(C(=O)c2ccccc2)S(=O)(=O)c2cccs2)cc1,0,i,0,5,9,-12,39,11,
NC(=NCCc1ccccc1)c1cccc([N+](=O)[O-])c1,-25,i,-22,-6,4,5,-12,-11,
c1ccc2c(c1)[nH]c1nc3nncn3nc12,-9,i,-10,4,3,0,-10,x,
O=C(NCCO)C(=O)NCC1CCCN1S(=O)(=O)c1cccs1 (configuration not stated),x,i,-10,x,-4,1,-14,3,
Cc1ccc2nc(Cc3ccc(N)cc3)[nH]c2c1,-5,i,-55,19,7,2,0,-58,
Cc1cc(-c2ccc(C)c(S(=O)(=O)NCc3cccc(Br)c3)c2)on1,-2,i,-11,-1,4,-2,18,-1,
N#Cc1ccc(OCC(=O)OCCCOC(=O)COc2ccc(C#N)cc2)cc1,-7,i,-5,-20,-2,0,16,x,
CCCCCOc1ccc(C(=O)Nc2ccc(N3CCOCC3)cc2N2CCOCC2)cc1,x,x,-12,x,0,3,0,-4,
OCC1(CC2CCCCO2)CCN(Cc2ccccc2-c2ccco2)CC1 (configuration not stated),9,i,x,1,1,3,-2,12,
CC1(C)CC(NC(=O)c2cc(S(=O)(=O)N3CCOCC3)ccc2Cl)CC(C)(C)N1,x,x,-7,x,0,3,-14,-10,
CC(C)c1cc(CNC(=O)C2CCC(=O)N(Cc3ccccc3F)C2)on1 (configuration not stated),1,x,-8,-13,3,4,-7,-5,
Cc1ccc(NC(=O)N2CCc3ccccc3C2)cc1,8,i,-24,3,2,4,-14,-42,
CCOc1ccc(/C=N/NC(=O)c2cc3c(OC)cccc3[nH]2)cc1,-7,i,-8,-13,1,1,63,-6,
CC12CC3(C)CC(C)(C1)CC(C(=O)NC(=S)N1CCOCC1)(C2)C3,-4,i,x,-5,-7,-1,-9,x,
O=C(NNC(=S)NCc1ccccc1)c1ccccc1OC(F)F,2,i,x,4,-1,4,11,-12,
COC(=O)CNC(=O)C(CCSC)NC(C)=O (configuration not stated),-13,i,x,0,0,1,-17,3,
COc1ccc(-c2nc(NC(=O)c3n[nH]c(=O)c4ccccc34)sc2C)cc1,13,i,x,5,5,-1,23,x,
Cc1cccc(NC(=O)NC2CCCCCCC2)c1,4,i,3,14,-3,-2,1,-88,
O=C1C2C3C=CC(CC3)C2C(=O)N1/N=C/c1ccc(O)c(O)c1 (configuration not stated),22,i,-26,-1,8,5,47,19,
CN(C)CCCn1c(SCC(=O)Nc2sc3c(c2C#N)CCCC3)nnc1-c1ccncc1,7,i,-22,7,13,2,9,x,
CCOC(=O)CSc1nnc(-c2ccccc2)c(-c2ccccc2)n1,4,i,-8,-2,-2,-1,-7,11,
Cn1cc(C(F)(F)F)nc1-c1ccc(OCC(O)CNCCOc2ccc(O)c(C(N)=O)c2)cc1 (configuration not stated),-9,i,-17,-2,4,1,7,16,
Cc1ccc(OCC(O)CN2CCOCC2)cc1C (configuration not stated),-2,i,-18,2,1,1,-14,11,
Cn1ccc(C(=O)OCC(=O)Nc2ccccc2Cl)n1,6,i,9,0,1,3,x,-5,
CN1C(=O)c2ccc(C(=O)NCc3ccccc3)cc2C1=O,-13,i,-5,-11,4,2,-8,x,
COC(=O)c1sc(NC(=O)/C=C/c2ccc(C)o2)nc1C,95*,i,x,-12,-5,-2,x,-32,eIF4H inh retest=70*;PABP polyA inh retest=26
CCOC(=O)c1cn2nc(Oc3ccc(OC)cc3)ccc2n1,-6,i,x,-11,2,5,-15,-12,
OCCN(CCCn1c(C(F)(F)F)nc2ccccc21)c1nc(CN2CCCCC2)cs1,-4,i,-14,-2,-7,2,-4,5,
c1ccc(Oc2ccc(-c3ccnc4nc(N5CCOCC5)nn34)cc2)cc1,-3,i,-17,-4,6,3,20,0,
Oc1ccc(Cl)cc1-c1cc(-c2ccccc2Cl)[nH]n1,-6,i,-11,12,4,4,44,-26,
Cc1ccc(Sc2c(C#N)c(-c3ccccc3)nn2C)cc1,12,i,0,1,-5,-11,43,x,

# 16 entries from above, arranged by length of the SMILES, highest first:
SMILES,eIF4H inh,Rce1 inhib,Yeast UUG start,PABP polyA inh,MT1-MMP act inh,MT1-MMP act inh RFP,CSC inhib,HIV Env fusion,others
Cn1cc(C(F)(F)F)nc1-c1ccc(OCC(O)CNCCOc2ccc(O)c(C(N)=O)c2)cc1 (configuration not stated),-9,i,-17,-2,4,1,7,16,
COc1cc([N+](=O)[O-])cc(/C=N/NC(=O)C(C)Nc2cccc3ccccc23)c1O (configuration not stated),35,i,-22,-1,4,0,23,5,
CC1(C)CC(NC(=O)c2cc(S(=O)(=O)N3CCOCC3)ccc2Cl)CC(C)(C)N1,x,x,-7,x,0,3,-14,-10,
OCCN(CCCn1c(C(F)(F)F)nc2ccccc21)c1nc(CN2CCCCC2)cs1,-4,i,-14,-2,-7,2,-4,5,
Cc1cc(-c2ccc(C)c(S(=O)(=O)NCc3cccc(Br)c3)c2)on1,-2,i,-11,-1,4,-2,18,-1,
Cc1cc(C(=O)CSc2nnc(Nc3ccccc3)s2)c(C)n1CC1CCCO1 (configuration not stated),-6,i,-6,2,-6,-9,17,x,
CC(C)c1cc(CNC(=O)C2CCC(=O)N(Cc3ccccc3F)C2)on1 (configuration not stated),1,x,-8,-13,3,4,-7,-5,
COc1ccc(N(C(=O)c2ccccc2)S(=O)(=O)c2cccs2)cc1,0,i,0,5,9,-12,39,11,
OCC1(CC2CCCCO2)CCN(Cc2ccccc2-c2ccco2)CC1 (configuration not stated),9,i,x,1,1,3,-2,12,
O=C(NCCO)C(=O)NCC1CCCN1S(=O)(=O)c1cccs1 (configuration not stated),x,i,-10,x,-4,1,-14,3,
NC(=NCCc1ccccc1)c1cccc([N+](=O)[O-])c1,-25,i,-22,-6,4,5,-12,-11,
Oc1ccc(Cl)cc1-c1cc(-c2ccccc2Cl)[nH]n1,-6,i,-11,12,4,4,44,-26,
Cc1ccc(Sc2c(C#N)c(-c3ccccc3)nn2C)cc1,12,i,0,1,-5,-11,43,x,
Cn1ccc(C(=O)OCC(=O)Nc2ccccc2Cl)n1,6,i,9,0,1,3,x,-5,
Cc1ccc(NC(=O)N2CCc3ccccc3C2)cc1,8,i,-24,3,2,4,-14,-42,
COC(=O)CNC(=O)C(CCSC)NC(C)=O (configuration not stated),-13,i,x,0,0,1,-17,3,

# Going on with the list:
SMILES,eIF4H inh,Rce1 inhib,Yeast UUG start,PABP polyA inh,MT1-MMP act inh,MT1-MMP act inh RFP,CSC inhib,HIV Env fusion,others
Cc1csc(NC(=O)CSc2nnc(-c3cccnc3)o2)n1,-9,i,-9,-7,-7,3,-1,-49,
CCC1C(=O)N=C(SCC(=O)Nc2ccc(C(=O)OC)cc2)NC1=O (configuration not stated),4,i,-13,3,2,1,x,-34,
Cc1ccc(N(O)C(=O)NCCCCNC(=O)N(O)c2ccc(C)cc2)cc1,8,i,-11,5,1,-1,-21,-30,
NC(=O)C1CCN(C(=O)c2cc(-c3ccc(Cl)cc3)nc3ccccc23)CC1,x,x,-10,x,-5,-4,-4,16,
CCOC(=O)N1CCN(C(=O)C2CCN(C(=O)c3ccc(C(C)(C)C)cc3)CC2)CC1,-2,i,6,-1,6,5,-13,0,
O=S(=O)(c1ccccc1)N1CCN=C1SCc1ccc(Cl)c(Cl)c1,1,i,x,-4,-1,-2,38,x,
CCOC(=O)c1c(C)[nH]c(C(=O)OCC(=O)N(C)C2CCS(=O)(=O)C2)c1C (configuration not stated),9,i,x,0,1,5,1,x,
C=C(C)COc1ccc(-c2ncncc2-c2ccc(OC)cc2)c(O)c1,9,i,-6,-2,-5,-8,-4,-5,
CCOc1cccc(OCCCCn2ccnc2)c1,-8,i,-12,7,2,1,27,x,
O=C(CN1CCOCC1)NCCNS(=O)(=O)c1ccccc1,12,i,-20,-6,-1,5,5,x,
COC(=O)C1C(C(=O)OC)C1(c1ccccc1)c1ccccc1 (configuration not stated),-8,i,4,-5,3,5,3,6,
N#CC1=C2SC=C(c3ccc(Br)cc3)N2CCCC1=O,4,i,x,-13,-1,-9,86*,-61,
CC(C)C[C@H]1CNC(=S)N1CC1CCN(CCCC2CCCC2)CC1,x,x,-25,x,1,1,x,-1,
COc1ccc(N(C(=O)CNC(=O)c2cccs2)C(C(=O)NCC2CCCO2)c2ccc(OC)c(OC)c2)cc1 (configuration not stated),1,i,-19,1,0,1,2,6,
CCOc1cccc2sc(N(CCCN(C)C)C(=O)c3ccc(S(=O)(=O)N(C)CC4CCCO4)cc3)nc12 (configuration not stated),1,i,-1,-5,-4,-1,-1,1,
COc1ccccc1CNC(=O)C(NC(=O)Nc1ccccc1)C(C)C (configuration not stated),-5,i,-4,-2,2,1,-21,-3,
Cc1ccc(CNC(=O)CC2Nc3c4ccccc4nc(=S)n3C2=O)cc1 (configuration not stated),-1,i,x,15,x,x,-9,0,
COc1ccc(C(=O)Nc2nc(OCC(F)(F)F)cnc2/C=C\c2ccccc2)c(OC)c1,x,x,-28,x,-11,-8,x,-12,
CCOC(=O)c1cc(OC(C)=O)c2ccc(OC)c(OC)c2c1,x,x,-13,x,-2,-4,x,-19,
COc1ccc(NC(=O)c2cc(F)c(F)cc2Cl)cc1Cl,8,i,-9,7,0,-8,-6,-11,
C[C@@H]1CN([C@H](C)CO)C(=O)c2cc(NC(=O)Nc3ccc(C(F)(F)F)cc3)ccc2O[C@H]1CN(C)C(=O)Nc1ccc(F)cc1,x,x,-1&31,x,13,1,x,-20[16.7 µM],
C=CCN(Cc1cccs1)C(=O)COc1ccc2c(c1)OCO2,x,x,-7,x,-2,-2,-15,4,
COc1ccc(C(NC(=O)/C=C/c2ccco2)c2ccc(OC)c(OC)c2)cc1OC,4,i,x,-1,-4,4,x,-7,
COc1ccc(CCNC(=O)C2CCC(CNc3c(N4CCCC4)c(=O)c3=O)CC2)cc1OC (configuration not stated),3,i,x,2,1,3,7,x,
O=C(Nc1ccc(Oc2ccc(NC(=O)Nc3ccccc3Cl)cc2)cc1)Nc1ccccc1Cl,3,i,-10,1,-4,-4,40,10,
CC(C)CCC(C)NC(=O)CN1C(=O)NC(C)(c2ccc3ccccc3c2)C1=O (configuration not stated),-3,i,9,-1,0,-2,1,x,
CC1(C(=O)Nc2ccc(F)c(Cl)c2)Cc2c(-c3ccccc3)ccnc2O1 (configuration not stated),x,x,-18,x,-1,-2,x,-9,
CCCCC(=O)c1ccc(OC(=O)c2ccc([N+](=O)[O-])cc2)cc1,x,x,-33,x,-2,1,x,-5,

# Bioassay records (PubChem)
